HPGD block: qHTS Assay for Inhibitors of HPGD (15-Hydroxyprostaglandin Dehydrogenase). AID 894, 2007. Potency, µM, for the others: at the top dose activity change, negative = inhibition, most hits filed as inhibitors. 150,000 tested, 4.3% active. 15-hydroxyprostaglandin dehydrogenase [NAD(+)] (Homo sapiens), P15428. purified HPGD, NADH fluorescence kinetic, PGE2 substrate; active = well fitted inhibition curve with a large enough effect (not every such curve was filed as active); inconclusive = small, poorly fitted or top-dose-only effect, or another doubt; inactive = no such curve, though single readings can be large or run the other way;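 also: top concentration of the series not given in the record; plate controls included wells without enzyme; inactives centre near -10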
Target sequence (P15428 whole entry, looked up): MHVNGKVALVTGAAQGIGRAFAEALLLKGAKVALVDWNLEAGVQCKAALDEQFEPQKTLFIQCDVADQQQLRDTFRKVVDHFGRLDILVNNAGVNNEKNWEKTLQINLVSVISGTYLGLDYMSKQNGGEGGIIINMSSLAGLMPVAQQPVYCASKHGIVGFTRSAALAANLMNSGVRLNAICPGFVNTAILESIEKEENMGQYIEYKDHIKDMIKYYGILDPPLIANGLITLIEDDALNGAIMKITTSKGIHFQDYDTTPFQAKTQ
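20 nM HPGD preincubated 15 min at room temperature with compound in 50 mM Tris-HCl pH 8, 0.01% Tween 20. Started with 1 mM NAD+ and 30 uM prostaglandin E2; NADH fluorescence (360/450 nm) read 5 times over 30-s intervals, last minus first.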
An asterisk follows results filed as active; ? = inconclusive. % is scaled to controls: 0 for no effect and ±100 for the full control effect; potency is read from the fitted curve at half-maximal effect. These rows are one share of the data. The share of hits here may be higher or lower than overall.

The first 15 entries as a preview:
SMILES	HPGD block
C=CCSc1nc2ccccc2n1C(=O)/C=C/c1cc(OC)c(OC)c(OC)c1	-30%
COc1ccc(OC)c(NC(=O)CCN2CCN(c3ccccc3F)CC2)c1	-11%
COc1ccc(CCNC(=O)CCSc2nc(-c3ccco3)cc(C(F)(F)F)n2)cc1	-24%
CN1C(=S)N(c2ccccc2)C(=O)/C1=C/c1ccco1	-21%
Cc1nc2cc(-c3ccccc3)ccc2o1	-12%
O=C(Cc1ccccc1)NC1c2ccccc2-c2ccccc21	-10%
COC(=O)/C(=N/Nc1ccccc1)N1CCCc2ccccc21	-10%
Cc1cccc2cc3c(N)c(C(=O)Nc4ccc(N5CCOCC5)cc4)sc3nc12	-21%
CCCNC(=O)COC(=O)c1ccccc1OCc1ccc(Cl)cc1	-14%
CCOc1ccc(N2Cc3ccccc3C2)cc1	-25%
Cc1ccc(C(c2nnnn2C(C)(C)C)N2CCN(C3CCCC3)CC2)cc1 (centres undefined)	2%
C=CCn1cnc2c(NCc3ccccc3)ncnc21	?
Cc1ccc(C(=O)N2CCN(c3ncccn3)CC2)o1	-14%
COc1ccc2c(C=O)c[nH]c2c1	-12%
Cc1ccc(NC(=O)C2=C(O)c3sccc3N(C)S2(=O)=O)cc1	-5%

The listing, from the start:
SMILES	HPGD block
C=CCSc1nc2ccccc2n1C(=O)/C=C/c1cc(OC)c(OC)c(OC)c1	-30%
COc1ccc(OC)c(NC(=O)CCN2CCN(c3ccccc3F)CC2)c1	-11%
COc1ccc(CCNC(=O)CCSc2nc(-c3ccco3)cc(C(F)(F)F)n2)cc1	-24%
CN1C(=S)N(c2ccccc2)C(=O)/C1=C/c1ccco1	-21%
Cc1nc2cc(-c3ccccc3)ccc2o1	-12%
O=C(Cc1ccccc1)NC1c2ccccc2-c2ccccc21	-10%
COC(=O)/C(=N/Nc1ccccc1)N1CCCc2ccccc21	-10%
Cc1cccc2cc3c(N)c(C(=O)Nc4ccc(N5CCOCC5)cc4)sc3nc12	-21%
CCCNC(=O)COC(=O)c1ccccc1OCc1ccc(Cl)cc1	-14%
CCOc1ccc(N2Cc3ccccc3C2)cc1	-25%
Cc1ccc(C(c2nnnn2C(C)(C)C)N2CCN(C3CCCC3)CC2)cc1 (centres undefined)	2%
C=CCn1cnc2c(NCc3ccccc3)ncnc21	?
Cc1ccc(C(=O)N2CCN(c3ncccn3)CC2)o1	-14%
COc1ccc2c(C=O)c[nH]c2c1	-12%
Cc1ccc(NC(=O)C2=C(O)c3sccc3N(C)S2(=O)=O)cc1	-5%
Nc1ncc2c(n1)CC(c1ccco1)CC2=O (centres undefined)	0%
CCCc1nnc(NC(=O)Cn2cnc3ccccc3c2=O)s1	-11%
COc1ccc2cc(C(=O)N/N=C/c3sc4ccccc4c3O)ccc2c1	-17%
O=C(NCCN1CCOCC1)C1CC(=O)N(c2ccc(F)c(Cl)c2)C1 (centres undefined)	-10%
CCOC(=O)c1oc2cccc(O)c2c1C	-13%
Cc1ccccc1NC(=O)CCC(=O)N/N=C/c1ccncc1	-2%
C#CCOCCOCCOCCNc1nc(N2CCN(C(=O)Cn3cc(CCO)nn3)CC2)nc(N2CCN(C(=O)[C@H]([C@@H](C)O)n3cc(CCCCN)nn3)CC2)n1	2%
Cc1ccccc1Nc1c([N+](=O)[O-])ccc2c1=NC1(CCCCC1)N=2	0%
O=C(NCc1ccc2c(c1)OCO2)C1CC(c2ccc(Cl)c(Cl)c2)=NO1 (centres undefined)	-8%
N=c1nc(-c2ccccc2)ccn1O	-9%
SMILES	HPGD block
O=C(Nc1ncc(Cc2cccc(Cl)c2)s1)c1cccs1	?
COc1ccc(-n2c(SCC(=O)N3CCN(c4ccccc4)CC3)nc3c(c2=O)SCC3)cc1	-13%
COc1ccc(S(=O)(=O)CCC(=O)NCCc2ccc(Cl)cc2)cc1	0%
Cc1cccc(CC2S/C(=N/N=C/c3ccco3)N(c3ccccc3)C2=O)c1 (centres undefined)	-20%
CCCCCCC(=O)N(O)C1CC(=O)N(c2ccccc2)C1=O (centres undefined)	16µM*
O=C(CCS(=O)(=O)c1cccc2nonc12)NCCc1ccccc1Cl	-23%
Cc1nn2c(N3CCN(C4CCCC4)CC3)cc(C(C)(C)C)nc2c1-c1ccccc1	?
Cc1cnc(CNc2ccnc(-c3ccccc3Cl)n2)cn1	-5%
Cc1cc(C)n(C(=O)CN2C(=O)COc3ccccc32)n1	-8%
O=C(Nc1ccc(-c2cn3ccsc3n2)cc1)C1CCCC1	14µM*
CN(Cc1cn(-c2ccccc2)nc1-c1ccc(F)cc1)C(=O)CCC(=O)O	-3%
CCOc1ccccc1NC(=O)c1c(Br)cnn1C	-16%
CCC(C)C(=O)OC1C2CC3=C4CC(=O)OC(c5ccoc5)[C@]4(C)CCC3[C@@](C)(C2=O)C(CC(=O)OC)C1(C)C (some centres undefined)	-9%
Cc1cc2ncn(C(=O)N3CCCC3)c2cc1C	-10%
CCOC(=O)c1c(C)sc2c1N(C(=O)CN(CC)CC)c1ccccc1S2	-4%
CCN1C(=O)/C(=C/c2ccc(N3CCCC3)cc2)NC1=S	-18%
COc1ccc(C/C(O)=C(\C#N)c2nc3ccccc3[nH]2)cc1OC	-20%
Cc1ccc(C(C(=O)NC2CCCC2)N(C(=O)CNC(=O)c2cccs2)c2cccnc2)o1 (centres undefined)	-5%
O=C(/C(=C/c1ccccc1)n1cncn1)c1ccc(Cl)cc1Cl	-4%
CCOC(=O)CCC(NC(=O)CCC(=O)NC(CCC(=O)OCC)C(=O)OCC)C(=O)OCC (centres undefined)	-1%
Cn1c(CN2CCOCC2)nc2cc(NC(=O)c3ccccc3Cl)ccc21	-10%
O=S(=O)(c1ccccc1)N1CCC[C@@]2(CCN(Cc3nccs3)C2)C1	-2%
Cc1cc(C(=O)CSc2nc3ccccc3o2)c(C)n1C1CC1	-13%
COC(=O)c1ccc(CSc2nnc(-c3c[nH]c4ccccc34)n2-c2ccccc2)cc1	?
C=CCn1c(SCC(=O)NC(=O)c2cccc([N+](=O)[O-])c2)nnc1-c1ccccc1	-9%

Quoted at random: 2 compounds from above.
SMILES	HPGD block
CCOc1ccccc1NC(=O)c1c(Br)cnn1C	-16%
Cn1c(CN2CCOCC2)nc2cc(NC(=O)c3ccccc3Cl)ccc21	-10%

Other structures
SMILES	HPGD block
Cc1nnc(N2C(=O)C(O)=C(C(=O)c3ccco3)C2c2ccc(F)cc2)s1 (centres undefined)	-7%
CCCOc1ccc(CSc2ncn[nH]2)cc1	-11%
CC1(C)CCCN(C(=O)c2ccc3c(c2NCCO)C(=O)c2ccccc2C3=O)C1	16µM*
CNC(=O)NC(=O)CSc1ncc(C(F)(F)F)cc1Cl	-6%
CCn1nnnc1SCC(=O)NCc1ccco1	-7%
CCCCC(c1nnnn1CC1CCCO1)N1CCN(c2cc(Cl)ccc2C)CC1 (centres undefined)	-8%
CCOc1cc2[nH]c(=S)n(Cc3ccc(C)o3)c(=O)c2cc1OCC	-15%
CCCCC(CC)CO (centres undefined)	-8%
COc1cc(C(=O)Nc2nc(-c3ccc(F)cc3)cs2)ccc1OCC(=O)N1CCOCC1	?
Cc1ccc2c(c1)sc[n+]2Cc1ccccc1	20µM*
CCn1c(=O)c2cc(S(=O)(=O)NCc3ccccc3)ccc2n(CC)c1=O	-6%
COc1ccc2[nH]cc(CCNC(=O)C3CCCNC3=O)c2c1 (centres undefined)	-3%
Cc1ccc(N2C(=O)[C@@H]3[C@H](C2=O)[C@H]2C=C(C(=O)c4ccccc4)C=CN2[C@@H]3C(=O)c2ccc(Cl)cc2)cc1	40µM*
O=C(Nc1nc(-c2cccc3ccccc23)cs1)c1cnccn1	-10%
CCn1c(SCC(=O)N2CCN(c3ccccc3)CC2)nc2c(c1=O)SC(C)C2 (centres undefined)	-29%
O=S(=O)(NCc1ccc(F)cc1)c1ccc2c(c1)OCCO2	-12%
CS(=O)(=O)N1CCC(C(=O)c2cccc(Cl)c2)CC1	-1%
COc1ccc(Nc2nc(C(F)(F)F)nc(C)c2C#N)cc1	-6%
COc1cc2c(cc1OC)C1=C(C#N)CCC(=O)N1CC2	?
O=C(CSc1nnc(C2CC2)n1-c1ccccc1)NCc1ccco1	-11%
C=CCc1cccc(/C=N/NC(=O)CNc2cccc3ccccc23)c1O	-25%
COC(=O)c1cc(NC(=S)NCc2ccc(Cl)cc2)cc(C(=O)OC)c1	-25%
Cc1ccc(S(=O)(=O)N(C)CCCC(=O)Nc2cc(C)ccc2C)cc1	-2%
CCn1cc(/C=C2\SC(=O)N(CC(=O)Nc3ccc4c(c3)OCO4)C2=O)c2ccccc21	-5%
CC(=O)NC(Cc1ccc(C(C)C)cc1)C(=O)NC1CCN(c2nc(C)cc(C)n2)CC1 (centres undefined)	-14%
SMILES	HPGD block
CCCCNC(=O)CSc1nc2ccc(NC(=O)CSc3nnc(N)s3)cc2s1	5µM*
C[n+]1ccccc1C1CCCC/C1=N\Nc1ccc([N+](=O)[O-])cc1[N+](=O)[O-] (centres undefined)	-15%
CCCn1nnnc1SCC(=O)N(C(C)C)C(C)C	-3%
O=C1c2ccccc2C(=O)N1Cc1nc2ccccc2c(=O)n1CCCn1ccnc1	-4%
Cc1ccc(S(=O)(=O)/N=C(\c2ccc(Cl)cc2)N2CCOCC2)cc1	-12%
COc1ccc(/C=N/n2cncn2)cc1COc1ccc(NC(C)=O)cc1	?
O=C(Cn1nnc(-c2ccccc2)n1)N/N=C/c1cc([N+](=O)[O-])c(Cl)cc1Cl	0%
COc1ccc(NC(=O)c2cccc(NC(=O)C(C)C)c2)c([N+](=O)[O-])c1	-7%
CCOC(=O)c1c(CN2CCCCC2)n(C)c2ccc(OC)c(S(=O)(=O)c3ccccc3)c12	-18%
Cn1cccc1C(=O)N1CCC2(CCCN(c3ncccn3)C2)CC1	-13%
CN(C(=O)C1CCOC1)c1nnc(-c2ccccn2)s1 (centres undefined)	-16%
Cc1nn(-c2ccccc2)c(N)c1N=Nc1ccc(Cl)cc1	-19%
CCCN1CCN(c2nc3c([nH]2)c(=N)ncn3CC(O)CO)CC1 (centres undefined)	-11%
C=Cn1c(N2CCOCC2)nc2c1c(=O)[nH]c(=O)n2C	-5%
CCOc1ccc(Cl)cc1S(=O)(=O)N1CCN(c2ccc(C)c(C)c2)CC1	-19%
COc1ccc(/C=N/NC(=O)c2cccc([N+](=O)[O-])c2)cc1OC(=O)c1ccc(C)cc1	-9%
Clc1ccc(-c2nnc3sc(Cc4cccs4)nn23)cc1	-11%
O=[N+]([O-])c1nn(-c2ccc3c(c2)OCCO3)n(O)c1=NC1CCCCC1	-10%
CCCCCC(=O)Nc1ccc2oc(-c3cncc(Br)c3)nc2c1	?
C=CCn1c(COc2ccccc2)nnc1SCC(=O)C(C)(C)C	-11%
O=C(CCCc1ccc(-c2ccccc2F)cc1)Nc1ccc(O)cc1	-17%
COc1ccc(C2CC(=O)c3sc(N)nc3C2)cc1 (centres undefined)	-12%
COCCNC(=O)C(c1ccc(F)cc1)N(CC1CCCO1)C(=O)CCC(=O)Nc1ccccn1 (centres undefined)	-9%
O=S(=O)(c1ccc(Cl)cc1)N1CCC(O)(c2cccnc2)CC1	-12%
O=C(Nc1cnn(C23CC4CC(CC(C4)C2)C3)c1)c1cc(-c2ccccc2)on1	-14%
SMILES	HPGD block
O=C(CN(c1ccccc1)S(=O)(=O)c1ccccc1)N/N=C/c1ccco1	-1%
O=[N+]([O-])c1ccccc1C1Nc2cccc3cccc(c23)N1	-25%
Cn1cc(S(=O)(=O)N2CCN(c3ccccc3F)CC2)c(=O)n(C)c1=O	-13%
O=C(c1ccc2c(c1)OCO2)N1CCCN(C(=O)c2ccc3c(c2)OCO3)CC1	-1%
CC1=C(C(=O)Nc2nc3ccccc3s2)C(c2ccco2)C(C#N)=C(SCC(=O)NC2CCCCC2)N1 (centres undefined)	?
CCOC(=O)CSc1nc2c(sc(=S)n2-c2ccccc2OC)c(=O)n1Cc1ccco1	-9%
Cn1nc(C(=O)N2CCc3ccccc3C2)c2ccccc2c1=O	-20%
CCOC(=O)C1=C(CC)NC2=C(C(=O)CCC2)C1c1ccc(OC)c(OC)c1 (centres undefined)	-21%
O=c1cc(-c2ccc([N+](=O)[O-])cc2)nc2cc(-c3ccc(F)cc3)[nH]n12	-23%
Cc1cc(C)cc(C(=O)OCC(=O)NCc2cccs2)c1	-20%
O=C(O)C1NCCc2ccccc21 (centres undefined)	3%
CCOc1ccc(S(=O)(=O)N(CC(=O)NC2CCCCC2C)Cc2ccco2)cc1 (centres undefined)	-10%
O=c1cc(Nc2ccc3c(c2)OCCO3)[nH]c(=O)n1-c1ccc(Br)cc1	-8%
COc1cc(C(C#N)N2N=C(c3ccccc3)CC2c2ccccc2)ccc1O (centres undefined)	-11%
Cc1ccccc1-c1cc(-n2ccnc2)ncn1	-7%
Cc1ccc(S(=O)(=O)N2CCN(C3CCC(c4ccccc4)CC3)CC2)cc1 (centres undefined)	-9%
CC(=O)c1ccc(NC(=O)Nc2cccc(Cl)c2)cc1	-3%
O=C(Nn1c(-c2ccccc2)nc2ccccc2c1=O)c1cccs1	-13%
Cc1ccc(/C=N/NC(=O)c2ccc(Br)o2)s1	-13%
CN(C)CCCN1C(=O)c2oc3ccc(Cl)cc3c(=O)c2C1c1cccnc1 (centres undefined)	-22%
COCCn1c(SCC(=O)Nc2cc(C(C)(C)C)nn2-c2ccccc2)nc2ccccc2c1=O	-1%
O=C(/C=C/c1ccco1)NC(=S)Nc1ccccn1	16µM*
Cc1ccc(NC(=O)NNc2cccc(Cl)n2)cc1	-5%
Cc1nnc(SCC(=O)N2c3ccccc3CC2C)s1 (centres undefined)	-1%
CCCn1c(C)cc(C(=O)COC(=O)CN=C2NS(=O)(=O)c3ccccc32)c1C	-7%
CCN1C/C(=C/c2cccc([N+](=O)[O-])c2)C(=O)/C(=C/c2cccc([N+](=O)[O-])c2)C1	-2%

Source: PubChem
